Screening data from PubChem BioAssay.
Insulin prom inh = inhibitors of insulin promoter-driven GFP, primary screen, imaging, TRM-6 cells (human fetal islet line), eGFP reporter, cell count; reporter expression induced with tamoxifen; 0.9% of 130,000 active; inhibition, % at 2 µM;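 active means inhibition above the mean plus 3 SD, with well images judged a real hit on visual review, cut at about 60% in these data, passing the limit was not always enough; inconclusive means inhibition over the cutoff but images rejected on review; inactive means inhibition not above the cutoff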
PKD1 inh = inhibitors of human PKD1 kinase, biochemical, fluorescence polarization | 0.056% of 200,000 active | PKD1 kinase fluorescence polarization assay | Serine/threonine-protein kinase D1 (Homo sapiens), Q15139 | inhibition, %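 (about 10 µM by stock and volumes)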;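 active means inhibition of 50% or more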;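 further: controls were vehicle for no effect and a reference inhibitor for full effect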
RGS16-Gao = modulators of RGS16 binding to Galphao, primary screen, biochemical, human proteins, multiplexed bead flow cytometry. Regulator of G-protein signaling 16 (Homo sapiens) + Guanine nucleotide-binding protein …. bead-based flow cytometry RGS16-Galphao binding, fluorescence; actives lie on both sides. binding response (% of control), % at 10 µM. 0.38% of 220,000 active. AID 1441, 2008;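 active means below 25% or above 175%, edge rows of some plates excepted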;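 further: Galphao activated by GDP with aluminum fluoride before binding; 100% = wells without compound and 0% = beads without RGS; some results beyond the cut were filed as inactive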
Target sequence (O15492 whole entry, looked up): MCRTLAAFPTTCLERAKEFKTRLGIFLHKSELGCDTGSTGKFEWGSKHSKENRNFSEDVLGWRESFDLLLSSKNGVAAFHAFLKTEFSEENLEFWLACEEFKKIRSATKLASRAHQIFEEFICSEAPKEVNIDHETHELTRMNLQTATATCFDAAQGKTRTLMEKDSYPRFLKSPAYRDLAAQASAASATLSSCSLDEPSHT
Target sequence (P09471 whole entry, looked up): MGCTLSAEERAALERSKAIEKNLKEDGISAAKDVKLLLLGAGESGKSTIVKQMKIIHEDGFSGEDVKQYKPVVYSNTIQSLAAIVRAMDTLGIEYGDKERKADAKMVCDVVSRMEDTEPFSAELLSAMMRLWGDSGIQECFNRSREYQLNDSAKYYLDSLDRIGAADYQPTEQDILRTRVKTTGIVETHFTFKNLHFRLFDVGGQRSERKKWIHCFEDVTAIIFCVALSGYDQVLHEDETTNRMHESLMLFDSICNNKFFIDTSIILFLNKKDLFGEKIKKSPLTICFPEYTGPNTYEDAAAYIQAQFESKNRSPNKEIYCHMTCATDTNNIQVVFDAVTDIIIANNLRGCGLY
GALR2 ag = GALR2 receptor agonists, primary screen, cell-based; Galanin receptor type 2 (Homo sapiens), O43603; GALR2-expressing cells, agonist activation read-out; activation, %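 (tested at 5 µM)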; 0.48% of 140,000 active;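 active means above mean plus 3 SD of all compounds, about 5% in these data, not always enough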;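 further: 0% = vehicle buffer wells and 100% = reference agonist at full effect; tested in CHO reporter cells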
Target sequence (O43603 whole entry, looked up): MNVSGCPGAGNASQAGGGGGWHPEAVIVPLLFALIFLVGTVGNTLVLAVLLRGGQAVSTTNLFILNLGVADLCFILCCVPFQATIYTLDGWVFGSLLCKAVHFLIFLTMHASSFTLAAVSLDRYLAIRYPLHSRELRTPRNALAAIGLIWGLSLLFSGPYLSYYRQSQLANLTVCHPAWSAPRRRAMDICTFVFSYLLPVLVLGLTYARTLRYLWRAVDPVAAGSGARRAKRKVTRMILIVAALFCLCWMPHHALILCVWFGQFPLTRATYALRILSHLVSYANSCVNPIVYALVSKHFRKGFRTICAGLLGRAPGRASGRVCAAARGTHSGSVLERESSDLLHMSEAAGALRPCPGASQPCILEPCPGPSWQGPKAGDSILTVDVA
HSV replic up = enhancers of HSV replication in host cells, fold increase, host cell viability; 0.005% of 220,000 active; HSV replication augmentation in cells; AID 1956, 2009; maximum fold increase;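 active means peak rise of 1.5-fold or more in the series; inconclusive means self-fluorescent or not available for retest; tested in PC3 cells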;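 further: first round at 10 µM; read as green reporter fluorescence; hits show the peak of a series up to 25 µM; 1 = signal of infected wells without compound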
Insulin prom inh cell count = second read-out of Insulin prom inh, no call of its own (marks repeat the call); normalized cell count, %; measured here: cell count, toxicity; reference of the scale not given here;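 cells exposed to compound for 48 h; stained nuclei by imaging scaled within each plate; lower means fewer cells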
HSV replic up primary fold = further read-out of HSV replic up, marked with its call; fold increase; compound at 10 µM; measured here: primary screen fold increase 10 uM; tested in PC3 cells;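 GFP signal in the first replicate; 1 = infected wells without compound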
An asterisk follows results filed as active; i = inactive; ? = inconclusive; · = not tested or not shown.

SMILES	Insulin prom inh	Insulin prom inh cell count	PKD1 inh	RGS16-Gao	GALR2 ag	HSV replic up	HSV replic up primary fold
Cn1c(=O)c(=O)n(C)c2cc(S(=O)(=O)N3CCN(c4cccc(C(F)(F)F)c4)CC3)ccc21	-500	66	-1	99	-2.1	i	0.65
O=C1CC(NCc2ccco2)C(=O)N1CCc1ccccc1 (stereo unspecified)	·	·	-9	102	-1.9	i	0.93
O=Cc1c(N2CCSCC2)nc2ccccn2c1=O	·	·	·	105	·	i	0.96
Cc1cccc(C)c1NC(=S)N(CCN(C)C)C(C)c1ccccn1 (stereo unspecified)	-110	71	-5	98	·	i	0.99
O=C(NCCO)c1cc2cc(Cl)cc(Cl)c2oc1=O	·	·	1	97	·	i	1.1
CN(C)S(=O)(=O)c1ccc(N2CCCC2=O)c([N+](=O)[O-])c1	4	100	-3	103	-1.6	i	0.96
Cc1ccc(C(=O)NC2CCSC2=O)cc1 (stereo unspecified)	·	·	6	103	-1.3	i	0.94
CCOC(=O)c1cnn(-c2nc(-c3ccc(C)cc3)cs2)c1C(F)(F)F	46	103	-8	107	-1.5	i	0.78
COCCNC(=O)c1cc(-c2ccc3c(c2)OCO3)on1	·	·	-1	102	-4.9	·	·
Cc1nc(C)c(C(=O)N2CCCC(CCC(=O)NCc3ccc(F)c(F)c3)C2)s1 (stereo unspecified)	·	·	-5	109	·	i	0.92
Cc1cc(C)nc(N/N=C/c2cn[nH]c2-c2ccccc2)n1	·	·	·	97	·	i	1.3
CC(=O)C1=C(C)OC(N)=C(C#N)C1c1cccnc1 (stereo unspecified)	17	101	-4	94	·	i	0.95
O=C(O)CC(O)C(=O)O (stereo unspecified)	-50	70	-10	86	-3.7	i	0.92
CCCCN(CC)C(=O)c1ccc(Cl)c(Cl)c1	24	70	-2	100	-1.3	i	0.93
COc1cc(C2CC(=O)N(CC(=O)NCc3ccco3)c3ccccc3S2)cc(OC)c1OC (stereo unspecified)	·	·	-4	102	-1.1	i	1
O=C(Nc1nccs1)c1cc2c(s1)CCCCC2	25	138	-8	104	-1.1	i	0.89
CC1CCc2nc(NC(=O)CN3CCN(Cc4ccc5c(c4)OCO5)CC3)sc2C1 (stereo unspecified)	51	101	-5	98	1.0	i	0.97
COc1cccc(-n2c(N)c(C(=O)Nc3c(C)n(C)n(-c4ccccc4)c3=O)c3nc4ccccc4nc32)c1	·	·	·	91	·	i	1
Cc1ccc(-c2c3c(=O)n(C)c(=O)n(C)c3cn2-n2cnnc2)cc1	·	·	6	103	-0.7	i	1
O=S1(=O)CCN2C=Nc3sc4c(c3C2=N1)CCCC4	-3	123	4	99	-1.8	i	0.97
O=C(CSc1nc2ccccc2c(=O)n1-c1ccc(OC(F)F)cc1)NCc1cccs1	-10	112	2	107	0.9	i	0.91
CN(C)/C=C(/C(=O)c1ccc(Cl)cc1)S(=O)(=O)c1ccc(Cl)cc1	-26	114	-7	122	-1.3	·	·
COc1ccc(C)cc1NS(=O)(=O)c1ccc2c(c1)n(C)c(=O)n2C	-9	76	-10	99	·	i	1
CCN1CCN(CC(O)COc2ccc(C)c(C)c2)CC1 (stereo unspecified)	0	92	4	103	-1.0	i	0.92
COC(=O)c1ccccc1NC(=O)c1ccc(-c2cccc(Cl)c2)o1	0	92	-3	98	-3.3	i	0.97

Arranged by value in PKD1 inh (lowest first): some entries from above
SMILES	PKD1 inh
Cc1cccc(C)c1NC(=S)N(CCN(C)C)C(C)c1ccccn1 (stereo unspecified)	-5
COC(=O)c1ccccc1NC(=O)c1ccc(-c2cccc(Cl)c2)o1	-3
COCCNC(=O)c1cc(-c2ccc3c(c2)OCO3)on1	-1
O=C(NCCO)c1cc2cc(Cl)cc(Cl)c2oc1=O	1
Cc1ccc(-c2c3c(=O)n(C)c(=O)n(C)c3cn2-n2cnnc2)cc1	6

Entries of single compounds from above:
COc1cc(C2CC(=O)N(CC(=O)NCc3ccco3)c3ccccc3S2)cc(OC)c1OC (stereo unspecified) in the list: Insulin prom inh = ·; Insulin prom inh cell count = ·; PKD1 inh = -4; RGS16-Gao = 102; GALR2 ag = -1.1; HSV replic up = i; HSV replic up primary fold = 1
O=C(CSc1nc2ccccc2c(=O)n1-c1ccc(OC(F)F)cc1)NCc1cccs1 in the list: Insulin prom inh = -10; Insulin prom inh cell count = 112; PKD1 inh = 2; RGS16-Gao = 107; GALR2 ag = 0.9; HSV replic up = i; HSV replic up primary fold = 0.91

Additional structures follow:
SMILES	Insulin prom inh	Insulin prom inh cell count	PKD1 inh	RGS16-Gao	GALR2 ag	HSV replic up	HSV replic up primary fold
CCOC(=O)C1CCN(C(C(=O)NC2CCCC2)c2ccc(C)cc2)CC1 (stereo unspecified)	·	·	16	105	-2.6	i	0.85
CCc1cc2c(Sc3nc4ccccc4s3)ncnc2s1	·	·	-1	95	1.2	i	0.58
COc1ccc(OC)c(CCNC(=O)Cn2sc3nc(C)cc(C)c3c2=O)c1	·	·	-6	17*	-4.3	i	0.91
Cc1ncc(CO)c(/C=N/NC(=S)Nc2ccc(F)cc2)c1O	-23	55	-9	105	-2.8	i	1.1
O=C(c1cnc(Cl)c(Cl)c1)N1CCC(Cc2ccccc2)CC1	40	52	4	113	·	i	1.1
Nc1ccc(Nc2ccc([N+](=O)[O-])cc2[N+](=O)[O-])cc1	33	88	-4	102	·	i	0.8
COc1ccc(NC(=O)C(C/C=C(/C)Cl)C(C)=O)cc1 (stereo unspecified)	-350	83	17	44	-0.7	i	0.98
Cc1nn(Cc2ccc(Cl)cc2)c(C)c1NC(=O)c1cc(-c2ccc3c(c2)OCO3)on1	55	126	-4	96	-1.1	i	1.2
CCC(C)N1C(=O)/C(=C/c2c(NCCCOC(C)C)nc3c(C)cccn3c2=O)SC1=S (stereo unspecified)	-164	86	0	111	-0.9	?	·
CCOC(=O)/C(=N\O)C1=NC(C)(C)Cc2ccccc21	42	95	0	114	-1.1	·	·
CCOCC(O)CSCc1ccc(Cl)cc1 (stereo unspecified)	-39	164	-5	97	-2.5	i	0.67
CCCCOc1ccc(C(C)NC(=O)CCS(=O)(=O)Cc2ccc(Cl)cc2)cc1 (stereo unspecified)	-45	73	-1	92	0.9	i	0.96
O=C(CCCc1nc2ccccc2s1)N1CCN(c2ccccc2)CC1	47	203	-3	94	-0.7	i	0.94
O=C1CC(=O)N(Cc2ccco2)C(=S)N1	21	46	0	101	-0.9	i	1.1
C/C(=N\N1CCN(c2ccc(Cl)cc2)CC1)c1cccc([N+](=O)[O-])c1	·	·	0	96	·	i	1
CN(C)c1ccc(C(=S)N2CCN(c3ccc([N+](=O)[O-])cc3)CC2)cc1	·	·	·	90	·	i	0.99
CCc1cccc2c(C=C(C#N)C#N)cn(CC(=O)N3CCCCC3)c12	42	128	-13	98	-0.8	i	0.97
COc1cccc(/C=N/NC(=O)c2ccoc2C)c1O	·	·	·	94	·	i	0.63
C/C(=N\NC(=O)CO/N=C(\C)c1cccs1)c1ccc(N)cc1	·	·	·	99	·	i	1.1
O=C(CSc1nnc(SCc2cccc3ccccc23)s1)c1ccc2c(c1)OCO2	-40	88	-6	97	-2.2	·	·
CCN1CCN(Cc2ccc(OCc3ccccc3)cc2)CC1	-305	30	-5	105	-1.5	i	1
Cc1[nH]c2ccccc2c1C1=CN2CCS(=O)(=O)N=C2S1	-24	62	-3	98	-0.5	i	0.81
COc1ccc(S(=O)(=O)NNC(=O)C(=O)NNc2ccccn2)cc1	·	·	·	112	·	i	1.3
O=c1oc2ccc(Cl)cc2nc1/C=C(\O)c1ccco1	·	·	·	98	·	i	0.84
O=C(COC(=O)CSc1ccc2ccccc2c1)NC1CCCC1	·	·	-4	104	-0.1	i	1

(continued)
SMILES	Insulin prom inh	Insulin prom inh cell count	PKD1 inh	RGS16-Gao	GALR2 ag	HSV replic up	HSV replic up primary fold
CCOCC(=O)Nc1nnc(COC)s1	3	199	-6	102	0.0	i	0.86
O=C(c1ccc2nc(N3CCOCC3)sc2c1)N1CCN(C(=O)c2ccco2)CC1	·	·	8	101	-2.4	i	0.95
Cc1cccc(CSc2nnc3c(n2)[nH]c2ccccc23)c1	·	·	·	100	·	i	1
CC1(C)CC(NC(=O)C23CCC(C)(/C(=N/O)C2)C3(C)C)CC(C)(C)N1 (stereo unspecified)	-123	34	-9	·	-0.4	i	0.77
OCCNCc1cccc(OCc2ccccc2Cl)c1	·	·	2	105	·	i	0.88
CC1(C)CC(C#N)(N2CCOCC2)CCO1 (stereo unspecified)	24	145	-7	96	-0.8	i	0.87
CCc1cc2c(CN3CCN(CC)CC3)cc(=O)oc2cc1O	7	110	-4	110	4.9*	i	0.86
Cc1cccc(Cn2nc(C)cc2NC(=O)Cn2cc([N+](=O)[O-])cn2)c1	·	·	-6	102	·	i	0.95
O=C(NCc1ccccn1)c1ccc2nc(-c3ccco3)c(-c3ccco3)nc2c1	·	·	2	65	-2.1	i	0.89
O=C(O)C1CC(=O)N(Cc2cccs2)C1 (stereo unspecified)	·	·	3	101	-3.0	i	0.82
CCOC(=O)N1CCN(C(=O)c2cc(-c3ccc(F)cc3)[nH]c2C)CC1	43	79	-9	104	-0.1	i	0.88
S=C(NCc1cccs1)Nc1cccc(Cl)c1	-7	89	-11	100	-1.5	i	0.89
CCOC(=O)c1ccc(Nc2ncnc3ccc(C)cc23)cc1	-3	91	-3	87	-1.5	i	0.93
Cc1ccc(S(=O)(=O)NNC(=S)Nc2ccc(Cl)cc2)cc1	·	·	·	101	·	i	1.1
Cc1cc(/C=C2/SC(=S)N(c3ccc([N+](=O)[O-])cc3)C2=O)c(C)n1-c1cccnc1	-119	68	-6	75	-2.0	i	1
O=C(CN1C(=O)c2cccc3cccc1c23)Nc1ccccc1	0	175	-4	110	·	i	0.73
CCCn1c(C)cc(/C=C(\C#N)C(=O)OCC(=O)Nc2cc(OC)c(OC)c(OC)c2)c1C	-34	122	3	101	-0.9	i	1.1
COC(=O)C(CCSC)NC(=O)C12CC3CC(CC(C3)C1)C2 (stereo unspecified)	44	69	-8	103	-0.8	i	0.9
O=C(CCCc1nc2ccccc2s1)NNC(=O)CCN1CCN(Cc2ccccc2)CC1	·	·	3	103	·	i	0.92
O=C(NCc1ccccc1)c1ccc(CSc2ccccc2)o1	·	·	-4	101	·	i	0.89
O=C(CN1C(=O)NC2(CCCc3ccccc32)C1=O)NCc1ccco1 (stereo unspecified)	15	70	0	107	-1.2	i	1
O=C(CC(=O)c1ccccc1)Nc1cccnc1	-30	63	-5	100	-1.1	i	1.1
Cc1cccc(OCCN2C(=O)c3ccccc3C2=O)c1	-18	152	-1	102	·	i	1
O=C(OCc1nc2ccc(Cl)cc2n1CCO)c1ccccc1	20	67	-11	101	-1.5	i	0.97
O=C(O)CCC(=O)Nc1ccc(N=Nc2ccccc2)cc1	·	·	1	106	·	i	0.89

(continued)
SMILES	Insulin prom inh	Insulin prom inh cell count	PKD1 inh	RGS16-Gao	GALR2 ag	HSV replic up	HSV replic up primary fold
CCCC(=O)Nc1ccc(Cl)c(NC(=O)c2cccnc2Cl)c1	-3	41	-3	95	-2.6	i	1.1
CC(=O)N1N=C(c2c(-c3ccccc3)c3cc(C)ccc3[nH]c2=O)CC1c1ccco1 (stereo unspecified)	0	94	-7	99	1.0	i	0.73
CCc1ccc(C(C)NC(=O)Cn2cnc3c(=O)n(C)c(=O)n(C)c32)cc1 (stereo unspecified)	-25	202	-4	76	0.4	i	1.1
CCn1ccnc1CNC(=O)CC1C(=O)NCCN1Cc1ccccc1F (stereo unspecified)	·	·	0	104	·	i	1
COC(=O)c1sc(N)c(C(=O)OC)c1COC(=O)CNS(=O)(=O)c1ccc(C)c(C)c1	-165	132	-5	94	-0.5	i	0.9
Cc1cccc(CN(C)CCc2ccccn2)c1	-38	89	-4	100	-0.7	i	1
CCn1c(SCC(=O)NNC(=S)Nc2ccc(C)cc2)nnc1-c1ccc(Cl)cc1	-13	91	-5	104	-1.3	i	1
COC(=O)c1ccccc1NC(=O)CSc1nc(N)cc(=O)[nH]1	·	·	-3	108	·	i	0.9
CS(=O)(=O)N1CCC(C(=O)Nc2ccccc2F)CC1	10	77	-4	102	1.6	i	0.91
c1cncc(Nc2nc(-c3ccncc3)cs2)c1	4	120	0	111	-0.4	i	0.95
O=C(c1cnn(C(=O)COc2ccc(Cl)cc2)c1)c1ccccc1O	26	104	8	114	-0.6	i	0.86
O=C(O)c1cccc(N/N=C/c2ccc(-c3ccccc3)cc2)c1	18	82	1	99	·	i	1
